# D2 ag: agonists of human D2 dopamine receptor (beta-arrestin). P14416. DiscoveRx PathHunter D2 beta-arrestin, luminescence, 90 min; 100% = 57 uM dopamine signal. activation, % (no concentration beside the values). actives 0.084% (n = 360,000). AID 624465; in the data active = activation above about 40%; inconclusive = about 15% to 40%; inactive = below about 15%; also: compound concentration not given in the record; the text of the record calls up to 30% inactive
#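 Agonist mode: compounds alone added to overnight-plated D2 PathHunter cells for 90 min at 37 C, with 57 uM final dopamine (EC100) defining full response. Beta-arrestin recruitment detected by chemiluminescent reagent, read after 1 h at ambient temperature.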
# TRPML1 agonist: activates the human TRPML1 channel | Q9GZU1 | TRPML1-expressing cells, Ca2+ dye fluorescence, FDSS; host cell line not named in the record; reference of the full effect not given here | activation, % (test concentration not listed) | actives 0.12% (n = 410,000) | AID 624414; in the data active = activation above about 50%; inconclusive = about 30% to 50%; inactive = below about 30%; also: 0% is about no effect; the text of the record puts the active cut at 80%
#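 Calcium fluorescence on an FDSS kinetic reader gave the read-out. Tet-induced TRPML1-DL cells were plated overnight, dye-loaded (Ca8 with quencher, 45-90 min, room temperature, dark), then read 110 s after compound addition, and again 110 s after 4uM final 54-4 (EC80).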
# PINK1 modulator: changes PINK1 expression. Potency, µM (titrated, usually from 76.6 µM), for inactives: top-dose activation (PINK1 increase), actives largely listed as activators. PINK1 immunofluorescence, high-content cytometry, 24 h. AID 624263. actives 0.2% (n = 410,000); active = well fitted activation curve with a large enough effect; inconclusive = small, poorly fitted or top-dose-only effect; inactive = flat fitted curve, though single readings scatter; cell line not stated here;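 also: potency is read from the fitted curve at half-maximal effect; % of control where 0% means no effect; nearly all actives have a fitted effect of over 65% in size; a mitochondrial uncoupler was the plate control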
#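 Decision-based qHTS: stable cells, 24 h exposure to five compound concentrations, CCCP as control. Fixed cells stained for PINK1 plus nuclear, mitochondrial and cell markers, cytometer read.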
# TRPML1 inh: inhibitors of human TRPML1 channel | Q9GZU1 | TRPML1-inducible cells, Ca2+ dye fluorescence, FDSS; active compounds read low; inhibition of EC80 agonist-evoked calcium signal | activity change, negative = inhibition, % (test concentration not listed) | actives 0.02% (n = 390,000) | AID 624415; in the data active means activity change below about -50%; inconclusive means about -30% to -50%; inactive means above about -30%;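 also: stimulus is agonist 54-4 at its EC80 concentration; % is scaled to controls: 0 for no effect and ±100 for the full control effect; compound concentration not given in the record; the text of the record puts the active cut at -80%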
#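 Calcium fluorescence in TRPML1-DL cells induced overnight with Tet: a 110 s read after compound pin addition, then a 110 s antagonist read after challenge with 54-4 at 4 uM final (EC80).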
# Six1-Eya2 blk: Six1/Eya2 interaction inhibition. actives 0.56% (n = 360,000). activity change, % (test concentration not listed). AlphaScreen GST-Six1/His-Eya2 binding, biochemical; active compounds read low; control for the full effect not named in the record. AID 651725; in the data active = activity change below about -65%; inconclusive = about -30% to -65%; inactive = above about -30%; also: % is scaled to controls: 0 for no effect and ±100 for the full control effect
# Target sequence (O00167 whole entry, looked up): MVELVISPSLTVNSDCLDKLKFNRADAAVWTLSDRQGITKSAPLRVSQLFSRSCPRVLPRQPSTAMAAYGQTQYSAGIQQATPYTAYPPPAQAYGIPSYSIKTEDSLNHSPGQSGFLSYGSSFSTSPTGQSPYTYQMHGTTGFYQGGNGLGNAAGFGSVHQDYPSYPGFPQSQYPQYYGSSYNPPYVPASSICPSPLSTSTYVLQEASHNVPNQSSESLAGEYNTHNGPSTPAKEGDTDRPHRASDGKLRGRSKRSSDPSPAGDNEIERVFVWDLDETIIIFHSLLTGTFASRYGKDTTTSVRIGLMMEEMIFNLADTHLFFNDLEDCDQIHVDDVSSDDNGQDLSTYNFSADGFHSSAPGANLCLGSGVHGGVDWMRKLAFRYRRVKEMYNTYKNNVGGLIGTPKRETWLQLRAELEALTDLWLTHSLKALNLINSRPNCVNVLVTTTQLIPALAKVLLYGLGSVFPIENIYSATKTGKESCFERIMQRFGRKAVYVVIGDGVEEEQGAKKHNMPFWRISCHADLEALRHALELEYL
# Target sequence (Q15475 whole entry, looked up): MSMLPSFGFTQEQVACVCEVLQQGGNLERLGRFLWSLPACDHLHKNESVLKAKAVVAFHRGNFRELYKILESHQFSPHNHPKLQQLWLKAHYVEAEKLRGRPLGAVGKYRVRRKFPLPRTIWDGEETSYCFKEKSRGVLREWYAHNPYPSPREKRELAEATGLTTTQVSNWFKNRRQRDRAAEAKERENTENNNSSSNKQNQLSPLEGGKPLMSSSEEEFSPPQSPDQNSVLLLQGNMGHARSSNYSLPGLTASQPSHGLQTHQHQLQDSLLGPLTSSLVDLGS
#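 AlphaScreen with GST-Six1 and His-Eya2 (5X mix: 250 nM and 500 nM), glutathione donor and nickel acceptor beads; buffer 50 mM Tris pH 8.0, 300 mM NaCl, 1 mM TCEP; 1 h at 37 C in the dark.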
# D2 potentiator: positive allosteric modulators of human D2 dopamine receptor. DiscoveRx D2 beta-arrestin cells, luminescence, 90 min; 100% = 57 uM dopamine signal. potentiation, % (no concentration beside the values). actives 0.23% (n = 360,000); active = potentiation of 50% or more; inconclusive = 30% to 50%; inactive = 30% or less;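 also: compound concentration not given in the record; tested on top of an EC20 dose of dopamine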
#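 PathHunter beta-arrestin assay in DiscoveRx D2 cells. Compounds were added with an EC20 of dopamine (50 nM final) for 90 min at 37 deg C. Luminescence was read 1 h after detection reagent, with 57 uM dopamine as the EC100 control.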
# The depositor's hits bear a star; ? = inconclusive; · = no result given; [ ] = dose if it differs, or a comment.
SMILES,D2 ag,TRPML1 agonist,PINK1 modulator,TRPML1 inh,Six1-Eya2 blk,D2 potentiator
Cc1nn(Cc2ccc(Cl)c(Cl)c2)c(C)c1NC(=O)c1cc(CC(C)C)on1,0.8,8.1,10%,6,0,-3
COc1ccc(OC)c(C(=O)N(C[C@H]2CC[C@@H]([C@@H]3CC[C@H](CO)O3)O2)C(C(=O)NC(C)(C)C)c2ccc(-c3ccccc3)cc2)c1 (some centres not stated),-1.9,0.1,-0.1%,1,-1,·
CC1(C)CC(=O)C(C=NCCc2ccccn2)=C(O)C1,-1.9,0.1,-0.9%[38.3 µM],-8,1,-2
CS(=O)(=O)N(CC(=O)NCCc1ccccc1)c1cc(C(F)(F)F)ccc1Cl,·,2.3,-1.2%,-17,·,·
Cc1c(CCO)c(=O)[nH]n1S(=O)(=O)c1ccc(F)cc1,-2.3,0.8,0.7%,6,5,-7
C=CCC1NS(=O)(=O)OC2CCCC12 (configuration not stated),-2.1,-0.3,2.0%,-3,-11,-13
Clc1ccc(C2=NN(c3ccccc3)C(c3ccco3)C2)cc1 (configuration not stated),1.0,0.2,13%,-9,73,-3
CSc1n[nH]c(NC(C)=O)n1,0.1,-0.5,0.6%,8,3,-17
CCOC(=O)C1CCCN(C(=O)c2cc3cc(F)ccc3[nH]2)C1 (configuration not stated),-7.0,·,-0.4%,·,-11,-6
Cc1ccc(C(=O)N(CC(=O)NC2CCCC2)c2ccccc2C)s1,-3.3,1.3,-0.5%,6,4,-2
CCC(C)C(NS(=O)(=O)c1ccc(C)cc1)C(=O)Oc1ccc2c3c(c(=O)oc2c1)CCC3 (configuration not stated),-3.2,1.9,22%[38.3 µM],90,-4,-13
COCCN(Cc1ccccc1)C(=O)c1cc(-c2ccc(OC)c(OC)c2)nc2ccccc12,-4.6,2.2,1.1%,21,1,6
Cc1ccc(N(CC(=O)NC(C)(C)C)C(=O)CCC(=O)Nc2ccccn2)cc1,-2.5,-0.7,0.8%,18,5,0
COc1ccc(-n2nc(C(=O)N(C)c3cc(C)ccc3C)c3c4ccccc4n(C)c3c2=O)cc1Cl,·,-0.7,0.7%,-11,·,·
Cc1ccc(/C=C2/NC(=O)N(Cc3ccccc3)C2=O)s1,2.7,22,14µM*,0,5,-5
CC1CCCN(c2nc3c(c(=O)n(C)c(=O)n3C)n2CCSc2nc3ccccc3o2)C1 (configuration not stated),-2.3,-0.4,6.8%[38.3 µM],-6,1,-5
CCOC(=O)/C(C#N)=C/c1ccc(-c2ccc(C)cc2)o1,·,1.0,2.2%,11,·,·
COc1ccc(Cl)cc1-n1c(/C=C/c2cccc3ccccc23)nc2ccccc2c1=O,·,2.7,1.7%,1,·,·
CC1CCc2nc(/C(C#N)=C/c3cccnc3)sc2C1 (configuration not stated),0.0,0.2,0.4%,11,1,1
CC1CCCCN1C(=O)c1cc2ccccc2cc1O (configuration not stated),-2.3,0.4,-0.8%,-2,-16,-12
CC1=C(C(=O)Nc2ccc(C)cc2C)C(c2ccc(C)o2)NC(=O)N1 (configuration not stated),-1.7,-0.3,11%[38.3 µM],28,4,-12
CCNC(=O)NC(=O)C(C)OC(=O)c1cccnc1SC (configuration not stated),-0.7,-0.3,-1.2%,6,3,6
CCOC(=O)c1c(C)[nH]c(C(=O)OCc2ccc(C)cc2)c1C,-3.7,2.2,2.8%,3,0,3
CCOc1ccc(N2CC(NC(=O)C(=O)c3c[nH]c4ccccc34)CC2=O)cc1 (configuration not stated),·,2.3,-0.4%,-8,·,·
CN(C(=O)COC(=O)c1n[nH]c(=O)c2ccccc12)c1ccccc1,11,0.3,0.1%,6,4,5
CCOc1ccccc1/C=N/n1c(C2CCCCC2)n[nH]c1=S,12,2.2,4.3%,-2,-5,-7
Cc1c(NC(=O)C(C)Oc2cccc(F)c2)c(=O)n(-c2ccccc2)n1C (configuration not stated),-3.1,0.2,-2.0%,-10,4,-4
COc1ccc(NC(=O)CN2C(=O)NC3(CCCC3)C2=O)cc1Cl,-2.6,-0.5,0.1%,-3,-7,-2
O=C1c2ccccc2C(c2nnnn2Cc2ccccc2)N1CCc1c[nH]c2ccccc12 (configuration not stated),·,-0.7,-1.1%,·,-6,·
CCCCC(=O)Nc1ccc(C2C(=O)c3ccccc3C2=O)cc1,-2.2,-0.2,-2.0%,-9,-20,-9
O=C(COC(=O)c1cccc(S(=O)(=O)N2CCCCC2)c1)NCc1ccccc1,1.0,0.5,2.8%,7,3,-34
Cc1ccc(C2OCC(C)([N+](=O)[O-])CO2)cc1 (configuration not stated),-0.5,1.5,0.1%,2,8,1
CCOC(=O)C1CCN(C(=O)c2ccc(Cl)c(Cl)c2)CC1,-0.9,-0.3,2.4%,-15,3,-14
CCCCC(=O)c1c(O)c2ccccc2oc1=O,1.2,-1.5,1.3%,-2,2,21
COc1ccc(CC(=O)NCCc2sc3nc(-c4ccc(OC)cc4)nn3c2C)cc1,·,0.9,-0.2%,24,·,·
Cc1cccc(OCCCC(=O)Nc2nnc(C3CCCO3)s2)c1C (configuration not stated),2.5,1.1,12%,3,0,20
Cc1cccc(C2=N/C(=C/c3cccs3)C(=O)O2)c1,-3.5,0.8,-1.3%,-9,5,-8
Cc1csc(SCC(=O)Nc2ccc(C)c(S(=O)(=O)N(C)C)c2)n1,0.7,0.2,-0.8%,28,-3,-11
CC1=C(C(=O)N(C(C)C)C(C)C)CC(CC(=O)NCCCN(C)C)C(=O)N1CCCN1CCCC1=O (configuration not stated),-2.8,-0.8,-0.8%,·,0,1
CC1=Nc2cc(C(=O)NCCc3ccccc3)ccc2Sc2c(C)ccc(C)c21,·,2.1,-0.7%,7,·,·
CN1C(=O)C(CC(=O)NC2CCCCC2)N(C)C1=O (configuration not stated),-0.5,0.2,3.7%,3,-17,-7
N#CCCn1cc(C(CC(=O)c2ccccc2)C(=O)O)c2ccccc21 (configuration not stated),-2.6,0.4,-2.3%,-18,-2,-20
Clc1cccc(CSc2nnc(-c3cccnc3)n2Cc2ccco2)c1,-2.9,2.1,-4.5%[38.3 µM],8,-5,13
COc1ccc(-c2cc3nc(C4CCN(C(=O)OC(C)(C)C)CC4)c(C(=O)O)cn3n2)cc1,-2.3,0.3,?,21,0,-2
CCOC(=O)C1C(c2ccc(OC)c(OC)c2)c2c([nH][nH]c2=O)CC1(C)O (configuration not stated),?,·,-0.7%,·,-2,18
CCOC(=O)C1C(C(=O)OC)=C(c2ccc(F)cc2)c2ccccc2N1S(=O)(=O)C(F)(F)F (configuration not stated),0.7,-0.2,0.4%,3,-3,·
C#CCNC(=O)C1CCN(c2ccc(S(=O)(=O)N3CCOCC3)cc2Cl)CC1,-2.2,0.9,10%,9,7,-8
Nc1ccc(-n2cc(-c3ccccc3)[nH]c2=S)cc1,?,1.8,-3.0%,15,-8,-11
Cc1c(C(=O)N2CCCCCC2)c(S(=O)(=O)Nc2ccccc2F)c(C)n1C,-7.2,0.2,-1.4%,1,2,-11
CCC(/C=N/NC(=O)C(=O)N/N=C/C(CC)CC)CC,-1.9,-0.2,-0.2%,15,7,-1
N#Cc1c(N2CCCC2)ccc(Br)c1Cl,-1.2,1.5,2.5%,-7,64,4
CC(N=C1NS(=O)(=O)c2ccccc21)C(=O)NCc1ccncc1 (configuration not stated),-2.8,0.6,-1.8%,0,5,-24
CN(Cc1ccccc1)S(=O)(=O)c1cccs1,-1.3,1.5,-0.8%[38.3 µM],-1,8,-2
CCCCn1c(N)c(N(CC(C)C)C(=O)c2ccc(S(=O)(=O)N3CCCCC3)cc2)c(=O)[nH]c1=O,-2.4,0.1,0.4%,-3,-1,-18
O=c1cc(CO)oc(C(Nc2ccccn2)c2cccc(F)c2)c1O (configuration not stated),-3.4,-0.2,-0.3%,-6,3,-1
N#CCCN(Cc1cccnc1)C(=S)Nc1ccccc1Cl,-1.6,1.0,0.0%,-2,17,-1
Cn1ncc(Cl)c1C(=O)N/N=C/c1cc2c(cc1[N+](=O)[O-])OCO2,-2.6,3.4,1.8%,15,-5,-2
O=C(OCC(=O)N1CCCC1)c1c[nH]c2ccccc12,-3.8,0.1,-0.8%,-3,6,0
CCN(CC(=O)Nc1c(F)cccc1F)C(=O)C1COc2ccccc2O1 (configuration not stated),0.6,-0.3,-1.2%,-5,23,0
O=C(Nc1ccc2c(c1)CCCN2C(=O)c1cccs1)c1cccc(F)c1,0.2,1.7,1.5%,3,7,-3
# (further entries)
SMILES,D2 ag,TRPML1 agonist,PINK1 modulator,TRPML1 inh,Six1-Eya2 blk,D2 potentiator
O=C(N/N=C/c1ccccc1)NC1CCCCC1,-0.2,2.1,-0.6%,-7,8,-8
O=C(O)c1ccc(CN2C(=O)c3ccc(Oc4ccc([N+](=O)[O-])cc4)cc3C2=O)cc1,1.6,-0.2,0.2%,7,0,1
CS(=O)(=O)N1Cc2ccccc2CC1C(=O)O (configuration not stated),-2.1,0.7,-0.8%,-9,1,-2
CCOC(=O)N1CCN(C2=NC3(CCCCC3)C(C#N)C(=O)N2)CC1 (configuration not stated),-2.6,-0.3,0.3%[38.3 µM],18,6,-10
Cc1ccc(NC(=O)CCSc2nc(-c3ccc4c(c3)OCO4)cc(C(F)(F)F)n2)cc1,·,2.1,2.4%,-9,·,·
CC(=O)N1CCc2cc(Br)cc(S(=O)(=O)NCCc3ccc(Cl)cc3)c21,·,-0.9,0.9%,7,·,·

# A section taken from the entries so far, for reference:
SMILES,D2 ag,TRPML1 agonist,PINK1 modulator,TRPML1 inh,Six1-Eya2 blk,D2 potentiator
O=c1cc(CO)oc(C(Nc2ccccn2)c2cccc(F)c2)c1O (configuration not stated),-3.4,-0.2,-0.3%,-6,3,-1
N#CCCN(Cc1cccnc1)C(=S)Nc1ccccc1Cl,-1.6,1.0,0.0%,-2,17,-1
Cn1ncc(Cl)c1C(=O)N/N=C/c1cc2c(cc1[N+](=O)[O-])OCO2,-2.6,3.4,1.8%,15,-5,-2
O=C(OCC(=O)N1CCCC1)c1c[nH]c2ccccc12,-3.8,0.1,-0.8%,-3,6,0
CCN(CC(=O)Nc1c(F)cccc1F)C(=O)C1COc2ccccc2O1 (configuration not stated),0.6,-0.3,-1.2%,-5,23,0
O=C(Nc1ccc2c(c1)CCCN2C(=O)c1cccs1)c1cccc(F)c1,0.2,1.7,1.5%,3,7,-3
O=C(N/N=C/c1ccccc1)NC1CCCCC1,-0.2,2.1,-0.6%,-7,8,-8
O=C(O)c1ccc(CN2C(=O)c3ccc(Oc4ccc([N+](=O)[O-])cc4)cc3C2=O)cc1,1.6,-0.2,0.2%,7,0,1
CS(=O)(=O)N1Cc2ccccc2CC1C(=O)O (configuration not stated),-2.1,0.7,-0.8%,-9,1,-2
CCOC(=O)N1CCN(C2=NC3(CCCCC3)C(C#N)C(=O)N2)CC1 (configuration not stated),-2.6,-0.3,0.3%[38.3 µM],18,6,-10
Cc1ccc(NC(=O)CCSc2nc(-c3ccc4c(c3)OCO4)cc(C(F)(F)F)n2)cc1,·,2.1,2.4%,-9,·,·

# This is a random part of the collection; about 1% have a hit in one of these screens.
